From PubChem
PINK1 modulator = modulators of PINK1 expression; PINK1 immunofluorescence, high-content cytometry, 24 h; Potency, µM (series often up to 76.6 µM), without a hit: at the top dose activation (PINK1 increase), usual class: activators; 410,000 tested, 0.2% active; active = well fitted activation curve with a large enough effect; inconclusive = small, poorly fitted or top-dose-only effect; inactive = flat fitted curve, though single readings scatter; cell line not stated here;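 note: potency is the fitted concentration of half-maximal effect; % of control where 0% means no effect; nearly all actives have a fitted effect of over 65% in size; a mitochondrial uncoupler was the plate control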
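Compound titrations (5 concentrations, 24 h) on a stable cell line; DMSO and CCCP controls. Endpoint: fixed-cell PINK1 immunofluorescence with mitochondrial, cell and nuclear markers, scanned by microplate cytometer.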
Six1-Eya2 inh = blocks human Six1 binding to Eya2; AlphaScreen GST-Six1/His-Eya2 binding, biochemical; stronger effect = lower value; control for the full effect not named in the record; activity change, % (test concentration not listed); 360,000 tested, 0.56% active; in the data active = activity change below about -65%; inconclusive = about -30% to -65%; inactive = above about -30%; note: % is set by controls: 0 for no effect and ±100 for the full control effect; compound concentration not given in the record
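Homogeneous AlphaScreen proximity assay pairing GST-Six1 with His-tagged Eya2 (added as 5X mix: 250 nM and 500 nM) in 50 mM Tris pH 8.0, 300 mM NaCl, 1 mM TCEP. Glutathione donor and nickel acceptor beads; 1 h, 37 °C, dark.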
CtBP-E1A blk = blocks the CtBP interaction with E1A | activity change, % (no concentration beside the values) | 340,000 tested, 0.49% active | AlphaScreen GST-E1A/His-CtBP binding, 1536-well; stronger effect = lower value; control for the full effect not named in the record; in the data active means activity change below about -65%; inconclusive means about -30% to -65%; inactive means above about -30%; note: % is set by controls: 0 for no effect and ±100 for the full control effect; compound concentration not given in the record
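AlphaScreen with 125 nM GST-E1A and 125 nM His-CtBP (5X stocks) in Tris pH 8.0, 300 mM NaCl, BSA, Tween 20, TCEP. Compounds preincubated 2 h at 37 deg C, then glutathione donor/nickel acceptor beads added for 1 h at 37 deg C in dark.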
TRPML1 ag = agonists of human TRPML1 channel; Q9GZU1; TRPML1-expressing cells, Ca2+ dye fluorescence, FDSS; host cell line not named in the record; reference of the full effect not given here; activation, % (concentration not given with the values); 410,000 tested, 0.12% active; AID 624414; in the data active = activation above about 50%; inconclusive = about 30% to 50%; inactive = below about 30%; note: 0% is about no effect; the text of the record puts the active cut at 80%
Target sequence (Q9GZU1 whole entry, looked up): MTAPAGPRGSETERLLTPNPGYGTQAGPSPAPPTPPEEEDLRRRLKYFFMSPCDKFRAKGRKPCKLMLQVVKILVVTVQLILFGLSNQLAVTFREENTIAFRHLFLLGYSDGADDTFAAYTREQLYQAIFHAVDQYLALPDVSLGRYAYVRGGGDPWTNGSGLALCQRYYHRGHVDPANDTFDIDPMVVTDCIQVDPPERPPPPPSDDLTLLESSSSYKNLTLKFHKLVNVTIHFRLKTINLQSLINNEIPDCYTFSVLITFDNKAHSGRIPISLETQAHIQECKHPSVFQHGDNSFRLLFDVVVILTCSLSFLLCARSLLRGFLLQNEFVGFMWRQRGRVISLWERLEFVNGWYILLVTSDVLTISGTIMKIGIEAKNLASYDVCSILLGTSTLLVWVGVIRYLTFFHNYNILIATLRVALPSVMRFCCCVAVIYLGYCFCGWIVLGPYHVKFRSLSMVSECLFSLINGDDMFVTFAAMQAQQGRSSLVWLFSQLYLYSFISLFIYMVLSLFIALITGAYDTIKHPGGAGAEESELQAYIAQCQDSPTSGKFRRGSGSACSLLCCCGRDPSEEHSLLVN
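Cells: TRPML1-DL, 1X Tet inducer, ~16 h at 37 degrees C/5% CO2. Dye: ABD Ca8 no-wash + quencher, 45-90 min RT. Read: 10 s baseline, compound add, 110 s agonist phase; 54-4 EC80 (4uM final), 110 s antagonist phase.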
D2 agonist = agonists of human D2 dopamine receptor (beta-arrestin). P14416. 360,000 tested, 0.084% active. DiscoveRx PathHunter D2 beta-arrestin, luminescence, 90 min; 100% = 57 uM dopamine signal. activation, % (no concentration beside the values); in the data active = activation above about 40%; inconclusive = about 15% to 40%; inactive = below about 15%; note: compound concentration not given in the record; the text of the record calls up to 30% inactive
Target sequence (P14416 whole entry, looked up): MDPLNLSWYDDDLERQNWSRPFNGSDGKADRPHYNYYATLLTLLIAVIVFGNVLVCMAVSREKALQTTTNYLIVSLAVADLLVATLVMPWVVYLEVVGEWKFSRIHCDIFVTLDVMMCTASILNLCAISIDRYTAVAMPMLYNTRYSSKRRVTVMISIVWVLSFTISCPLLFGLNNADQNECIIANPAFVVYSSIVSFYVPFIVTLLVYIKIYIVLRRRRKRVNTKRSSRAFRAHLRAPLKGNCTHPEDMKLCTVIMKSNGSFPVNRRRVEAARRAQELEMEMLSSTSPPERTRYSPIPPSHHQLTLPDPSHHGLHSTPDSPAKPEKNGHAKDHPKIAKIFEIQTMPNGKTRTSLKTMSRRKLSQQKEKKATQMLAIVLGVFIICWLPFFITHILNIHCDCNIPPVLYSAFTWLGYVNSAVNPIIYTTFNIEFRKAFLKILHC
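DiscoveRx PathHunter D2 beta-arrestin cells (2,100/well) attached overnight, then compound-stimulated 90 min at 37 C in HBSS/10 mM HEPES/0.1% Tween-20 buffer; beta-galactosidase complementation read by luminescence after 1 h at ambient temperature. Dopamine 57 uM final (EC100) as control.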
TRPML1 blocker = human mucolipin-1 channel inhibition; 390,000 tested, 0.02% active; activity change, negative = inhibition, % (concentration not given with the values); Q9GZU1; TRPML1-inducible cells, Ca2+ dye fluorescence, FDSS; stronger effect = lower value; inhibition of EC80 agonist-evoked calcium signal; in the data active means activity change below about -50%; inconclusive means about -30% to -50%; inactive means above about -30%;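 note: stimulus is agonist 54-4 at its EC80 concentration; % is set by controls: 0 for no effect and ±100 for the full control effect; compound concentration not given in the record; the text of the record puts the active cut at -80%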
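TRPML1-DL cells, Tet-induced overnight (~16 h, 37 °C) at 1,500 cells/well, were loaded with Ca8 no-wash dye plus quencher for 45-90 min at room temperature. Compounds were pinned during FDSS kinetic reading; agonist 54-4 at EC80 (4 uM final) then added.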
An asterisk follows results filed as active; u = inconclusive; x = no result given; [ ] = another dose, or the depositor's remark. Hits appear at their usual frequency; about 1% have a hit in one of these screens.

SMILES | PINK1 modulator | Six1-Eya2 inh | CtBP-E1A blk | TRPML1 ag | D2 agonist | TRPML1 blocker
CC1CCN(c2nc3c(cc2C#N)COC(C)(C)C3)CC1 | 5.6% | 17.3 | -7.1 | 0.5 | -3.4 | -3.7
Cc1ccn2c(Nc3ccc4c(c3)OCO4)c(-c3ccc(N(C)C)cc3)nc2c1 | 1.4% | x | x | 0.5 | x | 2.6
O=C(NC1(C(F)(F)F)N=C(c2ccccc2)N(C2CCCCC2)C1=O)c1ccccc1F (stereo not given) | 1.6% | x | x | -0.4 | x | 13.3
CC(CC(=O)Nc1ccccc1C(F)(F)F)c1ccccc1 (stereo not given) | -0.9% | 18.6 | 16.5 | -0.6 | -3.8 | 9.6
O=C(Cn1c(-c2cncs2)nc2ccccc21)NCc1ccccc1 | -0.3% | 1.7 | 1.4 | 0.7 | -0.9 | -5.2
c1ccn(CCc2ccncc2)c1 | 1.0% | -3.1 | -0.8 | -0.3 | -0.1 | 1.7
CCOc1ccc(OCC(=O)OC(C)C(=O)NC2CCCC2)cc1 (stereo not given) | 1.5% | -21.4 | 7.9 | 2.3 | 1.3 | -0.2
CC1(C)CC(=O)C(C=NCCN2CCN(C(=O)c3ccc(F)cc3)CC2)=C(O)C1 | 3.0% | -2.9 | 1.2 | 1.2 | -0.1 | 6.6
CC(C)Sc1nc(N2CCOCC2)c2c(c1C#N)CC(C)(C)SC2 | -0.3% | -2.2 | -17.1 | 0.3 | -3.4 | -2.9
COc1cccc(C(=O)Nc2cc(-c3cn4cccnc4n3)ccc2C)c1 | -0.4% | 0.0 | 2.7 | 0.4 | -2.1 | 9.8
CNC(=O)N(C1=NCCCCC1)c1ccc(Br)cc1 | 2.1% | 2.4 | 2.3 | -0.5 | 0.3 | -19.6
CCCCn1c(C)cc(/C=C(\C#N)C(=O)O)c1C | 1.9% | 5.6 | -13.9 | 0.8 | -1.0 | -2.9
COc1ccc(CNC(=O)CSc2nnc(NC(=O)C3CC3)s2)cc1 | -1.4% | 4.7 | 4.4 | 0.0 | 1.4 | 7.0
CC1CC(C)CN(C(=O)COC(=O)CNS(=O)(=O)/C=C/c2ccccc2)C1 (stereo not given) | -0.7% | -1.5 | 6.2 | -0.5 | -2.8 | 6.8
CC(O)CNc1nc2c(c(=O)n(Cc3cccc(Cl)c3)c(=O)n2C)n1C (stereo not given) | 2.7% | -0.5 | x | x | 4.3 | x
Cc1cc(NC(=O)c2ccc(-c3ccc(Cl)cc3)o2)cc(-c2nc3ncccc3o2)c1O | 4.0% | x | x | -0.8 | x | -5.6
COc1ccc(N2CCN(C(=O)COc3ccc4c(C)c(C)c(=O)oc4c3C)CC2)cc1 | 1.1% | 9.3 | x | -0.5 | 7.1 | -8.3
CNCc1cc(C)n(-c2cc(S(=O)(=O)N3CCOCC3)ccc2N2CCCC2)c1C | -1.1% | -27.1 | -9.1 | -0.1 | -1.9 | -5.1
COc1ccc(-c2nc3ccc(NS(C)(=O)=O)cc3o2)cc1 | 1.2% | x | x | 1.4 | x | 0.2
Nc1nc(SCc2ccc(Cl)cc2Cl)ns1 | 10.9%[38.3 µM] | 0.3 | 11.2 | -0.8 | -1.0 | -9.2
Cn1cccc1C1CCCN1CC(=O)Nc1ccc(F)c(F)c1F (stereo not given) | -0.5% | -9.2 | -17.2 | 0.5 | -8.4 | 21.5
COC(=O)Cn1c(=N)n(CCN2CCCCC2)c2ccccc21 | -1.5% | 7.5 | 3.2 | 1.4 | -1.3 | 5.2
CCOC(=O)/C(=N\Nc1cc(Cl)ccc1Cl)N1CCN(C)CC1 | 2.6% | -4.3 | -14.8 | -0.1 | -2.9 | -8.4
Clc1ccccc1-c1ncnc2ccc(Br)cc12 | 2.0% | 1.6 | 14.9 | 2.2 | -2.3 | -1.1
CCOC(=O)C1(C)CCN1C(=O)c1cc(OC)ccc1Br (stereo not given) | -0.4% | -0.5 | 3.4 | -0.1 | -3.6 | 35.6
Later entries
SMILES | PINK1 modulator | Six1-Eya2 inh | CtBP-E1A blk | TRPML1 ag | D2 agonist | TRPML1 blocker
O=C(CCCC(=O)N1CCN(c2ccccc2F)CC1)N1CCN(c2ccccc2F)CC1 | -0.7% | 8.8 | 5.9 | 0.6 | -1.0 | -6.5
N#Cc1ccccc1Sc1ccccc1C(=O)Nc1ccccc1 | 2.5% | -1.0 | -0.9 | 1.3 | -2.5 | -21.0
COc1ccc2c(c1)C(C)=CC(C)(C)N2S(=O)(=O)c1ccc(Br)cc1 | 7.1% | -11.4 | 15.8 | 4.0 | 1.7 | 78.0
Cc1c(Cl)cccc1NC(=O)CCN1CCC(C(N)=O)CC1 | 3.0% | 1.7 | 9.6 | 0.4 | -2.5 | 27.1
O=C(Cc1csc(-c2ccccc2)n1)NCc1ccc(F)cc1 | -0.8% | 4.5 | 0.0 | 0.0 | 2.4 | -4.5
CC1=CC(=O)C(Sc2ccc(C)cc2)=CC1=O | 8.8% | -6.5 | -8.2 | 1.3 | u | 17.6
CCCc1n(CC)c2ccccc2[n+]1CC(O)COC1CCCCC1 (stereo not given) | -0.8% | 3.6 | 5.5 | 0.6 | -2.8 | 19.6
Cn1c(SCC(=O)N2CCCC2)nc2cccnc21 | 0.3% | -1.9 | -17.9 | 0.8 | -3.2 | -18.2
Cc1ccc(-n2nc(C)c3c(C)cc(=O)n(CC(=O)NCc4ccc(OC(C)C)cc4)c32)cc1 | 1.7% | x | x | 3.1 | x | 1.0
O=C(CSc1ccc(-c2ccco2)nn1)NC1CCCC1 | -0.4% | -5.6 | 0.6 | 0.0 | -3.3 | 12.4
Cn1c(=O)c(/C(N)=N/OC(=O)c2ccccc2)cn(-c2ccccc2)c1=O | -1.8% | 19.9 | 0.0 | 0.2 | 12.2 | 44.3
O=C(Nc1nc2ccccc2n1CCN1CCOCC1)c1cn(-c2ccccc2)nc1-c1ccccc1 | 10.4% | -18.1 | -19.5 | -1.0 | -2.6 | 17.2
Cc1cc(NC(=O)CSc2nnc(-c3c[nH]c4ccccc34)n2-c2ccc(F)cc2)no1 | 10.8% | 2.3 | -5.6 | -0.3 | -1.6 | 7.5
CC(Oc1ccc(C(=O)c2ccccc2)cc1)C(=O)N1CCOCC1 (stereo not given) | 6.3% | 2.2 | 5.2 | -0.3 | -1.8 | 2.3
CCOc1cccc(N(C(=O)CNC(=O)c2ccco2)C(C(=O)NCC2CCCO2)c2ccccc2)c1 (stereo not given) | 4.5% | 1.9 | 0.0 | 0.4 | 6.6 | -0.3
CC(=O)Nc1cccc(-c2cnc(NC(C)=O)cn2)c1 | 0.5% | 5.4 | -26.9 | -0.5 | -6.5 | x
CC(=O)CCC(=O)c1ccc2ccccc2c1 | 1.4% | 7.2 | 4.7 | 1.6 | 2.2 | 24.2
Cc1ccc(NC(=O)C2CCN(S(=O)(=O)c3ccc4c(c3)oc(=O)n4C)CC2)cc1 | 5.9% | 6.7 | 4.8 | -0.8 | -1.5 | 5.4
O=C(Cn1cncn1)NCCCc1ccccc1 | -2.5% | 20.2 | -11.6 | 0.0 | -0.6 | 9.1
CN(c1ccccc1)c1ncnc2c1ncn2C | -0.5% | 23.0 | 0.7 | -0.3 | 0.3 | 0.9
Cc1sc(NC(=O)COc2ccc(C(C)(C)C)cc2)c(C(=O)OC(C)C)c1C | 0.3% | x | x | 0.6 | x | 4.7
O=C(NCCNC(=O)c1ccccc1)c1ccccc1 | 0.6% | -14.4 | -21.0 | 0.3 | 2.1 | 7.0
O=C(Nc1cccc(O)c1)C1CC(c2ccc(Cl)cc2)=NO1 (stereo not given) | 1.1% | 8.9 | 5.6 | -0.3 | 5.9 | -7.3
CCOC1=C(C#N)CC2(CC1)c1ccccc1-c1ccccc12 | 2.9% | 2.3 | 10.7 | 1.2 | 2.7 | 6.2
COc1cc(C(=O)NC2CCCC2)c(Br)c(OC)c1OC | 10.4% | 2.8 | 2.0 | -1.0 | 3.6 | 5.1
Next part:
SMILES | PINK1 modulator | Six1-Eya2 inh | CtBP-E1A blk | TRPML1 ag | D2 agonist | TRPML1 blocker
C=CCOc1ccc(CNc2nn[nH]n2)cc1 | 0.4% | 3.6 | 5.4 | -1.2 | -1.0 | -10.1
O=C(CSc1n[nH]c(=O)[nH]c1=O)c1ccccc1 | -0.5% | 1.1 | 2.4 | 0.4 | -2.5 | 11.5
COc1ccc(-c2cc(C(=O)O)no2)cc1 | 0.4% | 1.2 | -3.0 | 0.6 | -0.6 | 11.3
CC(C)(C)NC(=O)C(=O)NNC(=O)c1ccc(C(C)(C)C)cc1 | 2.4% | -1.2 | 5.0 | 1.6 | -1.5 | 32.1
Cc1cccn2c(=O)c(/C=N/O)c(NCc3ccccc3)nc12 | 14.5% | -11.8 | -13.2 | -0.1 | -3.5 | 31.5
NC(=O)c1ccc(SCC(=O)OCC(=O)N2CCN(C(=O)c3ccco3)CC2)c([N+](=O)[O-])c1 | 2.6% | -11.7 | -3.3 | -0.4 | -2.6 | 2.0
CC(C)NC(=O)NC(=O)COC(=O)c1ncc(Cl)c(Cl)c1Cl | 2.4% | 2.9 | -22.4 | 1.5 | 4.8 | 17.1
CC(=O)c1ccc(N2CCN(C(=S)Nc3ccccc3F)CC2)cc1 | 6.6% | 2.4 | -2.0 | -0.4 | 4.8 | 4.1
Nn1c(SCC(=O)NC2CCCCC2)nnc1-c1ccccc1F | 2.8% | -0.2 | 22.5 | 0.4 | -4.0 | 5.0
CNc1nc(Oc2ccc(C(=O)OC)cc2)nc(SC)n1 | x | -1.7 | -3.8 | 1.1 | -0.1 | 8.0
Cc1cc(O)c(NC(=O)c2cc([N+](=O)[O-])ccc2Cl)cc1C | -1.7% | -8.5 | -21.9 | -0.1 | 7.2 | 1.9
O=C(Nc1ccc(C#Cc2ccccc2)cc1)C1CC1 | u | -7.3 | -0.7 | 0.0 | -1.2 | 14.9
O=C(CC1SC(=Nc2ccccc2F)N(CCN2CCOCC2)C1=O)Nc1ccc(F)cc1F (stereo not given) | -0.4% | -4.3 | -13.0 | 0.2 | -4.0 | -18.3
CCC1Sc2ccc(S(=O)(=O)CCC(=O)NCc3ccco3)cc2NC1=O (stereo not given) | 6.7% | -1.9 | x | 0.5 | 0.2 | -1.5
CCN(C(=O)COC(=O)c1cc2ccccc2cc1OC)c1c(N)n(Cc2ccccc2)c(=O)[nH]c1=O | 4.3% | -2.0 | -16.1 | 0.1 | 1.6 | 4.2
Cc1cnc(NC(=O)CCN2C(=O)C3CCCCC3C2=O)s1 (stereo not given) | 1.3% | 0.0 | 1.7 | -1.1 | -4.3 | -2.8
CC1=C(C(=O)OC2CCCC2)C(c2cccc(Cl)c2Cl)CC(=O)N1 (stereo not given) | 6.5% | x | x | -1.2 | x | -5.7
